TAR Tat displ – TAR RNA-Tat peptide displacers, HIV-1, primary screen, biochemical, FRET, FAM/TAMRA-labeled Tat. HIV-1 TAR RNA, Tat peptide displacement FRET; hits give high values. z-score (concentration not given with the values). actives 0.6% (n = 100,000). AID 1259389, 2018;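 note: score is relative to mean and SD of negative controls; some compounds called inactive have numbers as strong as hits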
CDC25B-CDK2 inh – primary biochemical HTRF screen for blockers of M-phase inducer phosphatase 2 binding to CDK2/cyclin A; z-score (no concentration beside the values); actives 0.72% (n = 94,000); P30305+P24941; HTRF CDC25B-CDK2/CyclinA binding, anti-His/anti-Flag; hits give high values;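 note: score is relative to mean and SD of negative controls; strong numbers were not always called active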
* marks the source's active call; other numbers are inactive results; nt = not tested or not shown.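 Rule for the calls: active = z-score from 3 up in half or more of its runs; inactive = the rest.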

Value order: TAR Tat displ | CDC25B-CDK2 inh
CCC(CC)c1nn2cc(-c3ccc(F)cc3)nc2s1
 : 1.45 | 2.32
O=C1OC(c2ccc(O)cc2)(c2ccc(O)cc2)c2ccccc21
 : 0.72 | nt
Clc1ccc(CNc2c3c(nc4nncn24)CCC3)cc1
 : -0.39 | -1.93
COC(=O)c1sccc1S(=O)(=O)Nc1cc(Cl)ccc1OC
 : 0.8 | nt
CCOC(=O)C1(O)Oc2cc(OC)cc(OC)c2C(=O)C1c1ccccc1 (stereo not drawn)
 : 4.35 | nt
CCc1nc2nc(C)c(NS(=O)(=O)c3cccs3)c(=O)n2[nH]1
 : 0.32 | -1.54
Cc1ccc(N2C(=O)c3n[nH]c(C)c3C2c2ccc(Cl)cc2)cc1 (stereo not drawn)
 : 1.3 | nt
COC(=O)c1ccccc1-n1cccc1C(=O)OC
 : nt | -1.41
Cc1ccc(Nc2cc(N3CCN(C(=O)Nc4ccc5c(c4)OCCO5)CC3)nc(C)n2)cc1
 : 0.23 | -1.62
O=C(NC1CCN(c2ncccn2)CC1)C1CCCN(c2cnccn2)C1 (stereo not drawn)
 : 0.24 | -0.94
COc1ccccc1NS(=O)(=O)c1cc(Br)cnc1N
 : 0.81 | -1.99
OC(CNCCNc1nccc(C(F)(F)F)n1)c1ccccc1 (stereo not drawn)
 : nt | -2.54
Fc1ccccc1C(NCc1ccco1)c1nnc(-c2ccccc2)o1 (stereo not drawn)
 : -1.05 | nt
Brc1cccc(CSc2nc3ncccc3[nH]2)c1
 : 1 | -0.74
COC(=O)c1nnn(-c2cc3nccnc3cc2F)c1C(=O)OC
 : nt | -4.29
COC(=O)c1sccc1S(=O)(=O)Nc1ccc(OC)cc1
 : 1.23 | nt
CS(=O)(=O)Nc1ccc(C2=NN(C(=O)c3cccs3)C(c3ccccc3)C2)cc1 (stereo not drawn)
 : nt | -1.52
Cc1ccc(-n2ncc3c(NC4CCCCC4)ncnc32)cc1
 : 0.91 | nt
CC(=O)Oc1ccc(C2Sc3ccccc3NC3=C2C(=O)c2ccccc23)cc1 (stereo not drawn)
 : -1.36 | -1.32
O=C(O)C1c2ccccc2C(=O)N(Cc2ccc3c(c2)OCO3)C1c1cccnc1 (stereo not drawn)
 : nt | -2.29
CC(SC1=Nc2ccccc2C2=NC(c3ccccc3)C(=O)N12)C(=O)NCc1ccccc1 (stereo not drawn)
 : 1.72 | nt
O=C(Nc1ccccc1)NC1CS(=O)(=O)CC1O (stereo not drawn)
 : -0.46 | -0.32
COC(=O)C(C)NC(=O)NCc1cccn1Cc1c(C)cc(C)cc1C (stereo not drawn)
 : 1.08 | nt
COc1cc2c(OC(C)=O)c3c(c(-c4ccc5c(c4)OCO5)c2cc1OC)C(=O)OC3
 : 2.29 | nt
CC(N)=NCCCn1ccnc1
 : nt | -0.79
CN1CCN(CCNC(=O)C2COc3ccccc3C2)CC1 (stereo not drawn)
 : 0.61 | nt
Cc1cc(C)n(-c2nc3cc(Cl)ccc3nc2NCc2ccncc2)n1
 : -2.04 | nt
O=C(Nc1ccc(Cl)cc1)N(Cc1cccnc1)Cc1ccco1
 : 0.87 | nt
O=C(CCS(=O)(=O)c1cccc2nsnc12)N1CCN(c2ccc(F)cc2)CC1
 : 1.87 | -1.75
CSc1ncc2c(=O)n(Cc3cccnc3)ccc2n1
 : 1.8 | -1.05
COc1cc(C(N)=O)ccn1
 : nt | -1.76
N#CCCNS(=O)(=O)c1ccc(Cl)c(N)c1
 : nt | -1.88
CCC(C)n1c(=S)[nH]c2ccc(Cl)cc2c1=O (stereo not drawn)
 : nt | -2.41
CCCC(=O)OC1=C(C(=O)c2ccccc2)N(CC(=O)OC)S(=O)(=O)c2ccccc21
 : -0.59 | -0.24
CSc1nc2sc3c(c2c(=O)n1-c1ccccc1)CC(C)(C)OC3
 : -0.4 | -1.34
COC(=O)c1ccc(C2C3=C(Nc4c2c(=O)n(C)c(=O)n4C)c2ccccc2C3=O)cc1 (stereo not drawn)
 : -1.13 | -1.4
c1ccc(-c2nc(-c3noc(-c4ccccc4)n3)no2)cc1
 : nt | 0.2
Cc1cccn2c(=O)c3cc(C(=O)N4CC(C)CC(C)C4)n(C)c3nc12 (stereo not drawn)
 : nt | -0.03
CC(/C=N/N1C(=O)c2ccccc2C1=O)c1ccccc1 (stereo not drawn)
 : nt | -1.28
Cc1ccc(N2C(=O)CCS2(=O)=O)cc1S(=O)(=O)N1CCN(c2ccc(F)cc2)CC1
 : 1.27 | -0.57
O=C1C(=O)N(Cc2cccnc2)C(c2ccccc2)/C1=C(\O)c1ccc(Cl)cc1 (stereo not drawn)
 : 1.11 | -1.96
CCn1c2c(c3cc(Cl)ccc31)CCCC2=O
 : 0.54 | -3.86
O=C(C1CCCN(S(=O)(=O)c2cccc3nsnc23)C1)N1CCN(c2ccccc2)CC1 (stereo not drawn)
 : 0.02 | 0.46
Cc1nn2c(N3CCN(C)CC3)cc(C(C)(C)C)nc2c1-c1ccc(F)cc1
 : -0.75 | 0.14
O=C1C(=O)N(CN2CCOCC2)c2ccc(Br)cc21
 : nt | -1.31
O=C(N/N=C/C=N/Nc1ccccc1)c1sc2ccccc2c1Cl
 : nt | -1.23
O=C(N/N=C/c1ccc(-c2ccc(Cl)c(Cl)c2)o1)c1ccccc1O
 : nt | -2.16
O=C(CCCN1C(=O)C2C3C=CC(C3)C2C1=O)N1CCN(c2ccccc2F)CC1 (stereo not drawn)
 : nt | -0.03
CC(C)CCn1c(CCCC(=O)N2CCCC2)nc2cccnc21
 : -5.19 | nt
COC(=O)c1ccc2c(c1)nnn2Cc1ccccc1
 : 0.62 | nt
O=C(NCCc1c[nH]c2ccccc12)NC1COc2ccccc2C1 (stereo not drawn)
 : 1.54 | nt
CCCCNC(=O)CCc1c(C)nc2nc(C)nn2c1C
 : -0.05 | -1.39
N[C@H](C(=O)O)[C@H]1C[C@@H]1C(=O)O
 : nt | 7.72*
CC(=O)OCC(=O)[C@@]1(O)[C@H](OC(C)=O)CC2C3CCC4=CC(=O)C=C[C@]4(C)[C@@]3(F)[C@@H](O)C[C@@]21C (stereo partly drawn)
 : -0.38 | nt
CCOC(=O)C1=C(C)NC2=C(C(=O)CC(C)(C)C2)C1c1ccc2c(c1)OCO2 (stereo not drawn)
 : 0.95 | 0.89
O=C(c1ccc2c(c1)CCN2S(=O)(=O)c1ccc(Cl)cc1)N1CCCC1
 : 1.12 | -0.45
CCOc1cccc(-c2nc(=S)c3c([nH]2)Oc2c(cccc2OC)C3)c1O
 : 22.7* | 5.27
Fc1ccc(CN2CCc3nc(N4CCN(c5ccccc5F)CC4)ncc3C2)c(F)c1
 : 0.89 | nt
CC(=Nc1ccncc1)C1=C(O)CC(C)(C)CC1=O
 : nt | -2.45
CC(NCc1ccccc1)c1ccco1 (stereo not drawn)
 : nt | -2.97

Going on with the list:
Molecule | TAR Tat displ | CDC25B-CDK2 inh
CCOc1ccc(N2CSC3=C(C#N)C(c4ccc(C)o4)CC(=O)N3C2)cc1 (stereo not drawn) | 0.86 | 3.39*
O=S(=O)(Nc1ccc(-c2ccno2)cc1)c1ccc(-c2cnc(C3CC3)o2)cc1 | 0.8 | nt
Cc1ccc(-c2nnc(-c3ccc(C)cc3)o2)cc1 | 1.99 | -1.33
CCCSc1nnc2c(n1)OC(c1ccc(C)o1)Nc1ccccc1-2 (stereo not drawn) | nt | -1.65
CCc1ccc(S(=O)(=O)NCc2cn3c(C)csc3n2)s1 | 0.31 | -0.98
Cc1ccccc1N1CCN(c2ncnc3sc(C)c(C)c23)CC1 | 0.57 | nt
CCN(CC)c1ccc2nnc(CCC(=O)N3CCCC3)n2n1 | 0.05 | nt
CCCCCc1ccc(-c2ccc(C(=O)O)cc2)nc1 | nt | 2
COC(=O)c1sc2ccccc2c1NC(=O)C1CCCCC1 | nt | -1.93
O=C(NCc1ccco1)c1cc(-c2cccnc2)nc2ccc(Br)cc12 | 0.98 | nt
CCCN1CCc2nc(Nc3ccc4c(c3)OCCO4)ncc2C1 | 2.31 | nt
COc1cc(C2CC(=O)Nc3nc(N)[nH]c(=O)c32)ccc1OCc1ccccc1F (stereo not drawn) | -0.77 | -0.9
O=c1[nH]c2cc(-c3noc(COc4ccc(F)cc4)n3)ccc2n1C1CCCC1 | 0.28 | nt
COC(=O)c1ccc(OC)c(CN2N=NC3C(=O)N(c4ccc(F)cc4)C(=O)C32)c1 (stereo not drawn) | 0.86 | 0.72
COC1=CC(=O)C(O)=C/C1=C\C=C\c1ccccc1 | 0.65 | nt
CC1(C)CC(=O)C2=C(C1)Nc1nc(SCc3ccccc3)[nH]c(=O)c1C2c1ccccn1 (stereo not drawn) | nt | 0.36

An excerpt from above in order of formula weight, highest first.
Molecule | TAR Tat displ | CDC25B-CDK2 inh
CC1(C)CC(=O)C2=C(C1)Nc1nc(SCc3ccccc3)[nH]c(=O)c1C2c1ccccn1 (stereo not drawn) | nt | 0.36
COC(=O)c1ccc(OC)c(CN2N=NC3C(=O)N(c4ccc(F)cc4)C(=O)C32)c1 (stereo not drawn) | 0.86 | 0.72
CCCN1CCc2nc(Nc3ccc4c(c3)OCCO4)ncc2C1 | 2.31 | nt
COC(=O)c1sc2ccccc2c1NC(=O)C1CCCCC1 | nt | -1.93
COC1=CC(=O)C(O)=C/C1=C\C=C\c1ccccc1 | 0.65 | nt

The results go on:
Molecule | TAR Tat displ | CDC25B-CDK2 inh
O=c1[nH]cccc1-c1nc(-c2ccccn2)no1 | 2.2 | -0.75
CCCCn1cc(S(=O)(=O)c2ccccc2)c(=O)c2ccccc21 | 2.38 | -2.13
COc1ccc(CCN2C(=O)C(Oc3ccccc3C)C2c2ccc3c(c2)OCO3)cc1 (stereo not drawn) | 2.52 | -0.68
O=S(=O)(c1ccc2nc(NCc3ccc(Cl)cc3)cnc2c1)N1CCCCC1 | -5.38 | -1.35
O=c1[nH]c2ccc(Nc3cc(N4CCCC4)ncn3)cc2[nH]1 | 0.65 | 1.25
O=C(O)Cn1ncn2c(cc3cc(F)ccc32)c1=O | 2.24 | 0.02
Clc1cccc(-n2cc(-c3ccccc3)c3c(NCCCn4ccnc4)ncnc32)c1 | 2.02 | -2.68
Cn1ccc2cc(S(=O)(=O)N3CCC(C(=O)NCCc4cccs4)CC3)ccc21 | 1.59 | nt

One compound at a time (already shown). Screens in order: TAR Tat displ | CDC25B-CDK2 inh
CC(=O)Oc1ccc(C2Sc3ccccc3NC3=C2C(=O)c2ccccc23)cc1 (stereo not drawn) reads -1.36 | -1.32
COC(=O)c1sccc1S(=O)(=O)Nc1cc(Cl)ccc1OC reads 0.8 | nt

(cont.)
Molecule | TAR Tat displ | CDC25B-CDK2 inh
O=c1nc(N2CCOCC2)nc(Nc2ccccc2)[nH]1 | 0.99 | 0.93
FC(F)(F)c1cccc(-c2csc(-c3ccc(-n4cncn4)nc3)n2)c1 | nt | -1.34
O=C(Cn1ccn(-c2ccc(Br)cc2)c1=O)Nc1ccccc1Cl | -1.29 | nt
O=C(Nc1ccc(F)cc1Cl)c1cnn(-c2ccc(Cl)cc2)c1C1CCNCC1 | 0.4 | nt
CCOC(=O)C1(C(=O)OCC)Oc2c(OC)cccc2C1O (stereo not drawn) | nt | 0.73
CN(C(=O)c1nn(C)c2c1CSc1ccccc1-2)c1ccccc1 | 1.58 | -2.64
COC(=O)C1=C(C)NC2=C(C(=O)CC(C)(C)C2)C1c1ccc(Br)cc1 (stereo not drawn) | 0.25 | -0.6
CC(C)OCCCNc1c(-c2ccc(C(C)C)cc2)c(=O)c1=O | 10.9* | nt
Cc1cc(NC(=O)CN(C2=NC3CS(=O)(=O)CC3S2)c2ccc(Cl)cc2)n[nH]1 (stereo not drawn) | nt | -1.09
COCCOc1nc2c(c(=O)n(C)c(=O)n2C)n1C(C)c1ccccc1 (stereo not drawn) | 0.29 | 0.19
CCC(C(=O)NC1CCCC(C)C1C)n1nc(C)c2sc3ccccc3c2c1=O (stereo not drawn) | 1.3 | -2.4
CCN(CC)CCN(C(=O)c1cccs1)c1nc2ccc(F)cc2s1 | 0.19 | nt
COc1ccc(CNc2nc3c(-c4ccccc4)nnn3c3ccccc23)cc1 | 0.87 | 0.95
COc1ccc(C2=CC(c3ccc(Cl)cc3)n3nc(CCCO)nc3N2)cc1 (stereo not drawn) | 0.19 | -1.11
CC1=C(c2cccc(Cl)c2)S(=O)(=O)N=C1N1CCN(Cc2ccc3c(c2)OCO3)CC1 | 0 | -1.92
NC(=O)Cn1c(=O)n(-c2ccc(F)cc2)c(=O)c2sccc21 | nt | -0.26

Among those listed so far, these have a COOH group.
Molecule | TAR Tat displ | CDC25B-CDK2 inh
O=C(O)C1c2ccccc2C(=O)N(Cc2ccc3c(c2)OCO3)C1c1cccnc1 (stereo not drawn) | nt | -2.29
N[C@H](C(=O)O)[C@H]1C[C@@H]1C(=O)O | nt | 7.72*
CCCCCc1ccc(-c2ccc(C(=O)O)cc2)nc1 | nt | 2
O=C(O)Cn1ncn2c(cc3cc(F)ccc32)c1=O | 2.24 | 0.02

Next section:
Molecule | TAR Tat displ | CDC25B-CDK2 inh
CCN(CC)S(=O)(=O)c1ccc(-c2csc(C)n2)s1 | nt | -1
CCCc1c(NC(=O)Nc2ccc(F)cc2)cnn1-c1ccccc1 | nt | 0.84
CSC1=C(C#N)C(c2ccc(F)cc2)CC(=O)N1 (stereo not drawn) | 0 | -0.26
Cc1ccn2c(=O)c(NC(=O)c3cccc(Br)c3)c(C)nc2c1 | 0.83 | nt
COCc1c(Br)c(C)nc2sc3c(=O)n(CCc4ccccc4)nnc3c12 | 0.88 | -1.8
Cc1ccc(C2C(=O)N(C3CCC(C)CC3)CC(=O)N2CCc2ccccc2)cc1 (stereo not drawn) | nt | -1.55
Cc1cc(C)c(NC(=O)CSc2nnc(NC(=O)C(C)C)s2)c(C)c1 | 1.4 | 0.3
Cn1ncc2c(NCc3ccccc3)nc(N3CCN(Cc4ccccc4)CC3)nc21 | 0.48 | nt
O=c1cc(-c2ccccc2)c2cc3c(-c4ccc5c(c4)OCO5)coc3cc2o1 | nt | -0.69

Screening results from PubChem BioAssay.
